# Source: PubChem BioAssay
# CatG inh – blocks human cathepsin G enzyme activity; hit rate 0.2% among 62,000; purified enzyme, AMC-tetrapeptide fluorescence, pooled mixtures; inhibition, % at 5 µM (by protocol);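 active = inhibition above 20% in each of the two mixture wells holding the compound; inactive = inhibition of 20% or less in either well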;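 note: 0% = enzyme control without mixture and 100% = blank lacking enzyme; strong numbers were not always called active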
# Target sequence (P08311 21-244 limits assumed): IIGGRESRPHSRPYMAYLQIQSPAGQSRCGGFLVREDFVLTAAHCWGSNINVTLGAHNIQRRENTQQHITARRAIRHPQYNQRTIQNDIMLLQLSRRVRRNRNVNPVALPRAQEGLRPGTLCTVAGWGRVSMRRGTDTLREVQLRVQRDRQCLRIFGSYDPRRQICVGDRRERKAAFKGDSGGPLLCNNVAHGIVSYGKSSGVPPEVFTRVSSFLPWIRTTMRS
# CatS block – blocks human cathepsin S protease activity; P25774; recombinant cathepsin S, AMC dipeptide fluorescence, pooled mixtures; inhibition, %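 (tested at 5 µM per compound within 10-compound mixtures)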; hit rate 0.06% among 62,000; AID 501; in the data active = inhibition above about 32%, passing the limit was not always enough;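 note: 0% = enzyme without compound and 100% = blank without enzyme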
# Target sequence (P25774 115-331 limits assumed): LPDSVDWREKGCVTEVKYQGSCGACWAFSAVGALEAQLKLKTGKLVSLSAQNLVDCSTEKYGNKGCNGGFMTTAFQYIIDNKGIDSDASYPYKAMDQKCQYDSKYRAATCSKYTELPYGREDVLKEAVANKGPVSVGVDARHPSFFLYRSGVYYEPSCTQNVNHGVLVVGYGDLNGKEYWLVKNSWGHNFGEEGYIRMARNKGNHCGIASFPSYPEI
# CatB inh – human cathepsin B inhibition; inhibition, %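 (tested at 10 µM)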; P07858; AID 453; hit rate 0.1% among 63,000; purified cathepsin B, fluorogenic substrate, fluorescence; in the data active = inhibition above about 21%;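 note: 0% = enzyme with no compound and 100% = no enzyme blank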
# C1s block – human complement C1s inhibition; purified C1s, fluorogenic AMC substrate, pooled mixtures; mean inhibition % of two 10-compound mixtures (hits give high values), % at 5 µM (by protocol); hit rate 0.16% among 62,000; AID 538;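 active = inhibition above 20% in each of the two 10-compound mixture wells holding the compound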;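 note: 0% = enzyme wells lacking compound mixture and 100% = no-enzyme blank wells; some compounds called inactive have numbers as strong as hits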
# CatB mix inh – inhibitors of human cathepsin B in compound mixtures; Purified cathepsin B, AMC dipeptide fluorescence; AID 488; hit rate 0.06% among 62,000; inhibition, %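 (ten-compound pools at 5 µM per compound and 50 µM total)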; in the data active = inhibition above about 22%, passing the limit was not always enough;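 note: 0% = enzyme without compound and 100% = no enzyme blank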
# CatL inh – blocks human cathepsin L protease activity; purified cathepsin L, fluorogenic substrate, fluorescence; inhibition, %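 (tested at 10 µM)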; hit rate 0.17% among 58,000; AID 460; in the data active = inhibition above about 45%;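 note: 0% = enzyme with no compound and 100% = no enzyme blank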
# Target sequence (P07711 114-288 limits assumed): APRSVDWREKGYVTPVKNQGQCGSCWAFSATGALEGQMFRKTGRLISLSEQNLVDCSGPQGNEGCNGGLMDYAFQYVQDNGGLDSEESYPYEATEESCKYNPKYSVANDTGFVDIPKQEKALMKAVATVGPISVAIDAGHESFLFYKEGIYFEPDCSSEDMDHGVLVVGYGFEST
# Target sequence (P07711 292-333 limits assumed): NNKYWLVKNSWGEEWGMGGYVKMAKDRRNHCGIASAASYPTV
# HER2 expr 66K – inhibitors of human Her2 kinase expression; HER2 level % of control, % at 10 µM; SKBR-3 HER2 protein level, AlphaScreen, 18-24 h; hits give low values; P04626; AID 645; hit rate 0.69% among 65,000;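 active = HER2 level under 5% of the carrier-only control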;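 note: 100% = DMSO carrier and 0% = 500 nM PU-H71 HSP90 inhibitor; lower value means stronger loss of Her2 protein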
# * marks the source's active call; other numbers are inactive results; . = no result given.
SMILES,CatG inh,CatS block,CatB inh,C1s block,CatB mix inh,CatL inh,HER2 expr 66K
O=C(Nc1ccc2c(c1)OCO2)C1CCCCN1S(=O)(=O)c1ccc(F)cc1 (stereo not drawn),7.4,0.5,0.5,7.3,0.9,4.0,111.5
Cc1cc(C(=O)Nc2ccc(S(=O)(=O)Nc3onc(C)c3C)cc2)cs1,3.6,-4.1,1.9,2.2,-1.1,4.2,117.0
COc1cccc(NC(=O)CN2CCN(c3ccc(F)cc3)CC2)c1,4.3,9.3,6.2,-53.0,1.9,10.9,98.1
OCCCc1nc2n(n1)C(c1ccccc1Cl)C=C(c1cccs1)N2 (stereo not drawn),5.7,2.3,0.1,-6.8,0.4,-36.9,111.9
O=C(CCc1ccccc1)Nc1nnc(-c2ccc3c(c2)CCCC3)o1,-2.4,9.2,-0.5,-11.5,-2.1,11.1,93.0
O=C(O)c1ccccc1NS(=O)(=O)c1cccc2cccnc12,0.1,-3.8,-2.3,2.7,-2.0,.,94.1
Cc1cc(NC(=O)c2cc(C)on2)no1,1.2,6.8,-0.6,37.2,7.9,22.1,79.8
CC1(C)CC(=O)c2cnc(NC(=O)CCc3ccccc3)nc2C1,2.9,3.0,0.3,2.0,-0.7,-0.2,89.1
CC(NC(=O)C(NC(=O)C1CCCN1C(=O)OC(C)(C)C)C(C)C)C(N)=O (stereo not drawn),9.1,10.0,1.1,2.9,3.1,7.7,127.3
CC(=O)N1CCc2cc(C(=O)CN3CCCN(Cc4ccc(F)cc4)C3)ccc21,-2.4,0.0,-1.3,2.1,0.6,-0.6,65.7
Cc1ccc(S(=O)(=O)NC2=NCN(C3CCN(Cc4ccccc4)CC3)CN2)cc1,0.7,2.6,-0.9,4.6,0.5,28.0,83.5
CCCC(C)C(=O)Nc1ccc(C(N)=O)cc1 (stereo not drawn),11.4,-16.2,6.2,13.6,3.9,-5.2,127.5
Cc1ccc(-n2nnnc2SCC(=O)Nc2cccc(NC(=O)c3ccco3)c2)cc1C,8.8,-0.7,1.5,18.7,1.5,1.0,117.7
COc1ccc2cc3cc(C(=O)NCC4COc5ccccc5O4)oc3nc2c1 (stereo not drawn),5.9,3.0,4.2,-34.8,0.4,.,81.4
O=C(CCCSc1nc(-c2ccco2)cc(C(F)(F)F)n1)NCc1cccs1,8.1,-2.7,0.6,-7.5,3.7,7.6,103.1
CN(C1CCCCC1)S(=O)(=O)c1ccc2c(c1)c(=O)c(C(=O)NCCCN1CCCC1)cn2C,1.1,7.9,-5.1,-16.0,2.9,.,87.8
CCOC(=O)CSc1nnc(NCC(=O)OC(C)C)c(=O)[nH]1,-3.4,-7.5,-2.0,-15.7,-6.2,-11.2,124.5
CCn1c(SCC(=O)N2CCN(c3ccccc3F)CC2)nnc1-c1ccoc1C,9.3,-0.2,-1.7,3.2,2.0,-12.3,77.9
O=C(NCCN1CCCC1)C1(S(=O)(=O)c2ccc(Cl)cc2)CC1,9.1,-5.2,1.8,15.3,5.7,-5.0,92.0
CC1CN(c2cc(=O)n(Cc3ccc(F)cc3)c(=O)[nH]2)CC(C)O1 (stereo not drawn),10.4,6.6,0.0,14.7,2.0,12.2,101.1
CCOC(=O)N1CCN(C(=O)COc2ccc(Br)cc2Cl)CC1,7.8,-9.1,0.6,-5.2,-7.8,1.1,75.7
CC1Cc2ccccc2N1c1ncnc2nc[nH]c12 (stereo not drawn),-1.2,4.2,0.6,-0.1,2.4,-1.1,51.2
Nn1c(SCc2cccc(C(F)(F)F)c2)nnc1-c1ccco1,-8.2,-11.3,-5.7,-50.4,-0.6,-6.8,97.6
O=C(Nc1ccncc1)c1cccs1,9.5,2.0,2.1,3.7,1.8,14.9,72.9
CCOC(=O)c1nnn(-c2nonc2N)c1-c1ccccc1,-2.7,-11.8,-3.3,-17.0,2.8,-7.5,106.1
O=C(Nc1ccccc1-c1ccccc1)C1CCCN(c2ncccn2)C1 (stereo not drawn),4.7,3.0,3.8,-34.1,-3.6,37.4,62.0
O=C(COC(=O)Cc1cn2ccsc2n1)NCc1ccc2c(c1)OCO2,-7.6,12.9,6.1,-11.2,4.7,-0.8,78.5
CCCN(CCC)CCCNC(=O)c1cc2cc3ccc(OC)cc3nc2o1,-19.6,-16.9,-29.0,-256.5,-10.0,.,91.3
c1ccc(-c2nnc(N3CCN(c4ccccn4)CC3)c3ccccc23)cc1,0.0,-0.1,-1.8,1.8,-3.9,-9.3,91.4
CC(C)CN1C(=O)c2ccc(C(=O)Nc3ccncc3)cc2C1=O,-1.8,-4.8,-5.7,-2.9,4.7,-4.7,110.5
Cc1ccn2c(-c3csc(NCc4ccco4)n3)c(C)nc2c1,-2.7,1.9,-1.6,-9.5,4.4,.,67.2
c1ccc2c(c1)OCC(c1nn3c(Cn4nnc5ccccc54)nnc3s1)O2 (stereo not drawn),-5.6,-3.9,0.3,3.1,0.8,-0.9,56.2
COc1ccc(CNC(=O)CCc2nc(-c3ccccc3F)no2)c(OC)c1,8.2,-1.1,-0.2,9.6,2.5,12.8,86.9
Cc1ccc2cc3cc(C(=O)NCCC(C)C)oc3nc2c1,8.9,-0.6,5.0,3.3,2.4,.,112.6
COc1ccc(/C(O)=C2/C(=O)C(=O)N(CCCC(=O)O)C2c2ccc(OC)c(OC)c2)cc1 (stereo not drawn),7.6,-3.8,-0.3,7.5,1.8,6.0,97.1
COCC(=O)Nc1cc(OC)c(Cl)cc1OC,1.3,4.9,-3.7,-0.3,6.3,-4.1,147.3
CCOc1ccc(-c2nnn(CC(=O)NCc3ccc(F)cc3)n2)cc1OCC,-1.1,7.9,0.8,0.9,6.2,19.8,87.6
CCOc1ccc(N(CC)C(=O)COc2cc(=O)n(C)c3ccccc23)cc1,11.2,-7.9,8.2,13.8,3.8,1.7,92.6
c1ccc2c(N3CCCC3)nc(-c3ccncc3)nc2c1,9.0,10.5,2.1,10.8,0.2,11.0,99.6
COC(=O)c1nnn(-c2nonc2N)c1-c1cccs1,3.9,-0.7,2.9,-7.6,-0.8,-3.8,116.8
Cc1nn(-c2ccccn2)c2c1-c1nc(N)ncc1CC2,15.4,2.4,-1.6,-6.7,-1.6,6.7,69.8
O=C(NCc1ccco1)c1nc2nc(-c3cccs3)cc(C(F)(F)F)n2n1,-5.8,-20.7,-7.6,-43.5,-11.6,-58.1,73.1
Brc1c(CSc2nnc(-c3ccco3)o2)nc2ccccn12,-0.2,3.1,1.9,-2.0,0.1,3.7,99.8
CC(=O)/C(C(=N)N1CCN(c2cccc(Cl)c2)CC1)=C(\C)O,9.6,3.2,4.4,8.8,-0.1,15.7,115.2
CCC(=O)N1C(=O)CCN(C(C)=O)c2ccccc21,1.6,-6.7,-1.6,-9.7,-1.9,4.2,81.5
Cc1ccc(-c2nnn(CC(=O)NCc3ccccc3)n2)c(-n2cnnn2)c1,5.2,-5.0,-0.6,5.6,1.7,4.5,114.5
O=C(CSCc1ccc(Cl)cc1)NCC1CCCO1 (stereo not drawn),-1.5,2.2,-0.2,-0.3,5.1,.,82.1
COc1ccc(C(=O)Nc2cccc3c2C(=O)NC3=O)cc1S(=O)(=O)N1CCOCC1,0.3,10.1,-5.7,-1.6,5.6,4.3,78.9

# Part of the list above, bar-delimited.
SMILES | CatG inh | CatS block | CatB inh | C1s block | CatB mix inh | CatL inh | HER2 expr 66K
CCC(=O)N1C(=O)CCN(C(C)=O)c2ccccc21 | 1.6 | -6.7 | -1.6 | -9.7 | -1.9 | 4.2 | 81.5
CC(=O)/C(C(=N)N1CCN(c2cccc(Cl)c2)CC1)=C(\C)O | 9.6 | 3.2 | 4.4 | 8.8 | -0.1 | 15.7 | 115.2
O=C(NCc1ccco1)c1nc2nc(-c3cccs3)cc(C(F)(F)F)n2n1 | -5.8 | -20.7 | -7.6 | -43.5 | -11.6 | -58.1 | 73.1

# Further records:
SMILES,CatG inh,CatS block,CatB inh,C1s block,CatB mix inh,CatL inh,HER2 expr 66K
CC(C)[N+]1(C)[C@@H]2CC[C@H]1CC(OC(=O)C(CO)c1ccccc1)C2 (stereo partly drawn),-0.2,8.7,7.6,2.1,1.1,2.1,85.0
COCCCn1c(C(C)C)nc2oc3cc(OC)ccc3c(=O)c2c1=O,14.0,13.0,5.3,15.7,5.5,-5.9,97.3
c1ccc2c(c1)[nH]c1c(NCC3CCCO3)ncnc12 (stereo not drawn),8.1,-0.8,-0.3,1.2,-0.4,-0.7,75.4
Cc1ccc(N2C(=O)c3sc4nnc(C)c(=O)n4c3C2=O)cc1,.,.,0.6,.,.,12.8,56.9
CCc1ccc(N2C(=O)c3sc4nnc(C)c(=O)n4c3C2=O)cc1,15.8,15.5,6.8,-11.0,5.9,15.7,121.4
O=S(=O)(NC1CCN(Cc2ccccc2)CC1)c1cccc2cccnc12,4.3,5.9,3.5,-27.2,-3.4,14.5,95.5
Cc1cc(NC(=O)c2ccc(S(=O)(=O)N(C)C)cc2)no1,-1.5,-3.9,-0.4,1.3,3.6,-6.7,74.1
Cc1cc(NC(=O)c2ccc3c(c2)OCCO3)no1,-2.7,-6.7,1.4,7.5,1.6,3.7,108.3
COc1ccc(/C(O)=C2/C(=O)C(=O)N(CCN(C)C)C2c2ccc(OC)c(OC)c2)c(C)c1 (stereo not drawn),8.6,-3.5,6.9,6.0,-3.3,.,82.9
CCOc1cccc(C(=O)Nc2cccc(-c3nc4ncccc4o3)c2C)c1,14.5,18.0,2.8,15.1,5.3,4.0,111.8
Cn1c(=O)c2c(ncn2CC(=O)N2CCN(c3ccccc3F)CC2)n(C)c1=O,13.4,-7.1,3.7,14.4,-0.5,.,90.8
CC1(C)Oc2ccc3ccc(=O)oc3c2/C(=C/N)C1=O,-1.6,15.8,2.8,0.3,0.7,2.3,119.1
COc1cccc(C(=O)Nc2cccc(OC(C)=O)c2)c1,8.1,10.2,5.5,-10.1,4.4,5.2,.
CC(=O)C1=C(O)C(=O)N(CCC(=O)O)C1c1cccc(F)c1 (stereo not drawn),-13.1,-9.3,2.6,-177.5,-7.7,7.7,68.8
CC(C)(Oc1ccc(Cl)cc1)C(=O)NCc1ccco1,-1.2,13.6,5.3,14.1,-0.2,12.4,81.2
Cc1cc(=O)oc2cc(OC(C)C(=O)Nc3nccs3)ccc12 (stereo not drawn),0.5,-6.5,-1.8,8.1,3.2,-3.3,94.9
Cc1cccc(-n2ncc3c(N)ncnc32)c1,8.4,-0.9,-0.2,-14.6,0.1,12.6,103.1
O=C(Cc1c(F)cccc1Cl)Nc1ccncc1,3.3,10.6,-3.0,3.4,2.0,9.8,89.7
Cc1cccc(-c2cc3nc4c(c(N5CCOCC5)n3n2)CCCC4)c1,8.4,-4.9,4.0,2.5,7.6,-27.0,62.1
CC(C(=O)N1CCOCC1)N1C(=O)c2ccccc2C1=O (stereo not drawn),-0.6,2.5,1.2,2.3,1.3,1.1,131.9
O=C(NCc1cccs1)C1CCCN(c2ncccn2)C1 (stereo not drawn),10.5,1.1,3.6,13.9,20.1,0.6,93.5
Cc1ccc(CNc2ncc(-c3ccc4c(c3)OCO4)n2C)cc1,-9.5,-4.2,1.5,-0.7,2.3,-10.3,124.7
CS(=O)(=O)N(CC(=O)NCCSC1CCCCC1)c1ccc2c(c1)OCO2,8.3,-1.2,3.2,0.9,3.8,11.7,81.0
O=C(Cc1cccs1)Nc1cccnc1,-3.4,5.6,2.7,-15.1,0.4,22.4,99.7
O=C(NCCN1CCCCC1)c1cc2ccccc2[nH]1,-6.9,-8.3,3.8,-34.6,0.3,-8.9,146.4
CC1(C)Oc2ccc3ccc(=O)oc3c2-c2cnoc21,-2.1,5.5,-3.8,-1.7,4.7,2.9,89.7
COc1ccc(C(=O)Nc2ccc(-c3ccc(C)o3)cc2)cc1S(=O)(=O)N1CCOCC1,11.7,-2.2,-1.5,14.6,3.2,3.1,117.9
CCSc1ccccc1C(=O)NCCCn1ccnc1,-9.5,-1.1,1.1,-12.0,2.5,-19.5,99.3
Cc1cc(NC(=O)c2ccc(Cl)cc2)no1,-9.9,10.4,-0.7,-18.9,-1.1,0.1,89.1
Cc1cccc(Nc2nc3c(c(=O)n(C)c(=O)n3C)n2Cc2ccccc2)c1,7.7,6.1,3.9,0.2,2.2,-0.8,118.0
COCCNC(=O)NC(=O)COC(=O)Cc1ccc2c(c1)OCCO2,0.4,13.7,-4.1,4.3,3.9,-2.2,96.0
CC1=C(C(=O)Nc2ccccc2)C(c2cccnc2)n2nc(-c3cccnc3)nc2N1 (stereo not drawn),-0.7,-4.1,-2.4,-15.7,3.8,-3.7,87.3
C=CCn1c(SCC(=O)Nc2ccccc2C)nnc1-c1ccncc1,10.2,-3.4,-1.1,15.9,-1.4,0.1,75.8

# An excerpt; the hit share may differ from the screen's.
